Screening data as filed in PubChem.
ALR H2O2 inh: inhibitors of human ALR sulfhydryl oxidase, primary screen, biochemical, H2O2 detection, HRP-luminol luminescence, single point; purified ALR, DTT oxidation; 290,000 compounds, 3.8% hits; AID 485317, 2010; FAD-linked sulfhydryl oxidase ALR (Homo sapiens), P55789; inhibition, % (no concentration beside the values);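 active = mean and each replicate at 75% or more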;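 also: stock transfer was 7.5 nL into about 7.5 µL; 0% = neutral wells and 100% = wells with inactivated enzyme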
Target sequence (P55789 whole entry, looked up): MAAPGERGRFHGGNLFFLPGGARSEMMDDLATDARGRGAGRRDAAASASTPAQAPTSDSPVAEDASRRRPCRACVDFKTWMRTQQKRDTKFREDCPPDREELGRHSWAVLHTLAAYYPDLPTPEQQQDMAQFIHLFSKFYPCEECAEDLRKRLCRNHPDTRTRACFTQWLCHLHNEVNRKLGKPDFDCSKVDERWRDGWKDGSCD
Ecoli rRNA inh: reduced GFP signal of wild-type E. coli, primary screen, bacterial rRNA inhibitor project, GFP/RFP fluorescence, OD600, single point; E. coli WT GFP vs humanized-ribosome RFP mutants, 24 h; active compounds read low; DMSO median 0, no signal -100; GFP signal change (wild-type ribosome), % (no concentration beside the values); 350,000 compounds, 1.6% hits; AID 720706, 2013;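 active = significant combined selectivity score with lowered wild-type GFP, culture density cut under 30%, mutant RFP and density less affected; inactive = any of these conditions unmet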; also: one replicate is shown; some compounds called inactive have numbers as strong as hits
Ecoli growth: E. coli growth inhibition, primary screen, OD600. Escherichia coli growth, 23 h; active compounds read low. OD600 absorbance (test concentration not listed). 330,000 compounds, 0.21% hits. AID 1053175, 2014;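 active = OD600 absorbance below the run mean of sample wells minus 3.6 SD, in any replicate, cut at about 0.56 in these data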;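 also: stock transfer was 300 nL into about 60 µL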
HNF4A DNA FP: change in binding of human HNF4A to DNA, primary screen, biochemical, fluorescence polarization, FITC-DNA | Hepatocyte nuclear factor 4-alpha (Homo sapiens), P41235 | 1 h | activity change, % at 10 µM | 360,000 compounds, 0.3% hits; in the data active = activity change above about 30%, passing the limit was not always enough;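 also: controls were the assay level and a saturating level of protein; the project sought stronger binding though the title names inhibitors; some compounds called inactive have numbers as strong as hits; positive values seem to mean higher polarization but the record does not say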
FGF22 binding: binders of human FGF22 protein, primary screen, FGF22 synaptogenesis inhibitor project, biophysical, thermal shift, single point; Fibroblast growth factor 22 (Homo sapiens), Q9HCT0; recombinant FGF22 thermal shift, SYPRO orange fluorescence; percent of sucrose octasulfate shift, DMSO zero; calls only at 9.99 µM; 340,000 compounds, 1.5% hits;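 active = melting point raised past a set limit in the mean and every replicate; three in four hits are not shown here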
Target sequence (Q9HCT0 whole entry, looked up): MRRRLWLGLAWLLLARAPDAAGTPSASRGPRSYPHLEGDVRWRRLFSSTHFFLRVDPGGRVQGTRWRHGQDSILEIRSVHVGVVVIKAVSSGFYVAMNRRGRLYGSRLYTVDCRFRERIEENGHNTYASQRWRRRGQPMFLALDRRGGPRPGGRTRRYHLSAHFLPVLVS
Vif A3G: inhibitors of Vif binding to APOBEC3G peptide, primary screen, biochemical, TR-FRET, GST-Vif 1-94, biotin-A3G peptide, dose response retest (AID 1117319). Virion infectivity factor (Human immunodeficiency virus type 1 group M subtype B (isolate …. one-dose inhibition, %; IC50 in µM for titrated hits. TR-FRET GST-Vif / biotin-A3G peptide binding; higher % means a stronger effect; test concentration not given here; strong numbers were not always called active. 260,000 compounds, 0.57% hits;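 active = above the screen mean plus three standard deviations and confirmed in dose response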;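 also: Vif residues 1-94 fused to GST binding biotinylated APOBEC3G peptide 110-148; 0% = full assay without inhibitor and 100% = GST in place of GST-Vif; retest series ran down from 100 µM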
MLL AF4-AF9 inh: inhibitors of AF4 peptide binding to AF9, primary screen, biochemical, AlphaScreen, biotin-AF4 peptide, FLAG-AF9, single point. inhibition, % at 10 µM. 350,000 compounds, 0.47% hits. AID 651704, 2012;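 active = every replicate reaching a set inhibition limit, whatever the replicate mean, cut at about 25% in these data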;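 also: 0% = plate neutral control median and 100% = total signal loss; the record names both 10 and 1 µM as test concentration; the first replicate is given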
Target sequence (P42568 whole entry, looked up): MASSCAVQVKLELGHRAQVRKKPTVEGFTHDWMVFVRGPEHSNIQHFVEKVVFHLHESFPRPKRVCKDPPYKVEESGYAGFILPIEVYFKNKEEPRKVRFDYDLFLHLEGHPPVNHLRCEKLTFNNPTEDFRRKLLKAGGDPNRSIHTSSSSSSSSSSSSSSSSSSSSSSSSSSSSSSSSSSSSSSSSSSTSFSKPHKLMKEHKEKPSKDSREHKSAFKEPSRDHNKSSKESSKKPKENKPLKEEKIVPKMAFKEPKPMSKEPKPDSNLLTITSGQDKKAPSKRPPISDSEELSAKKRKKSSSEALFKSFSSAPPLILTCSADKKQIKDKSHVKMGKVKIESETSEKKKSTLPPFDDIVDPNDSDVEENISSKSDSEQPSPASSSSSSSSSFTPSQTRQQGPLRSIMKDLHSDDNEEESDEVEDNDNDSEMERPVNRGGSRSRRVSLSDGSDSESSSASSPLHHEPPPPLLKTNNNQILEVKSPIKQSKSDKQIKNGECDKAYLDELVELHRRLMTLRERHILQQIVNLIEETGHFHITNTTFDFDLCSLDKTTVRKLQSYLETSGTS
Ecoli rRNA inh OD600: recorded beside Ecoli rRNA inh, whose call it bears; OD600 change, %; measured here: OD600 growth;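 optical density of the mix in the first replicate; 0 = DMSO median and -100 = no signal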
Ecoli rRNA inh RFP: also measured in Ecoli rRNA inh; calls as there; RFP signal change, %; measured here: RFP humanized mutant strains;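 first replicate; 0 = DMSO median and -100 = no signal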
* marks the source's active call; other numbers are inactive results; i = inactive; · = no result given; + = active, no number; & = joins results of further samples.

[1] CCOCCCNCC(=O)Nc1cc(S(=O)(=O)N2CCOCC2)ccc1N1CCOCC1
[2] O=C(Cc1ccncc1)Nc1ccc2c(c1)[C@H]1C[C@@H](CC(=O)NC3CCCC3)O[C@@H](CO)[C@H]1O2
[3] CN1CCN(C(=O)C[C@H]2CC[C@H]3[C@@H](COc4ccc(NC(=O)C5CCCCC5)cc4C(=O)N3C)O2)CC1
[4] CCC(=O)Nc1ccc2c(c1)OC[C@H](C)N(C(=O)NC(C)C)C[C@@H](C)[C@@H](OC)CN(C)C2=O
[5] COc1ccc(NC(=O)C2CCCN(S(=O)(=O)c3ccc(-n4cnnn4)cc3)C2)cc1 (stereo not drawn)
[6] CCCNC(=O)C1(C)CCCN(Cc2cccc(C#N)c2)C1 (stereo not drawn)
[7] O=S(=O)(c1ccccc1)N1CC2(C1)[C@@H](c1ccccc1)[C@@H](CO)N2CC1CCCC1
[8] C/C(Cc1ccccc1)=N\NC(=O)CNC(=O)c1ccc(F)cc1
assay / entry,1,2,3,4,5,6,7,8
ALR H2O2 inh,-5,·,·,·,·,·,·,-1
Ecoli rRNA inh,10,6,-3,1,4,7,-15,2
Ecoli rRNA inh OD600,15,3,-2,5,7,11,-36,8
Ecoli rRNA inh RFP,-1.5,2.1,-2.9,2.9,1.0,2.5,5.2,-0.8
Ecoli growth,0.69,·,·,·,0.71,·,·,·
HNF4A DNA FP,3.7,·,·,·,-2.3,-2.3,·,-1.1
FGF22 binding,i,i,i,i,i,i,i,i
Vif A3G,·,·,·,·,-3%,·,·,·
MLL AF4-AF9 inh,-1.7,-0.6,-13,-2.0,-2.0,-0.8,-0.6,1.8

[9] CCOC(=O)C1=C(C)Nc2nnnn2C1c1c[nH]c2ccccc12 (stereo not drawn)
[10] O=C(OCC(=O)N1CCN(C(=O)c2ccco2)CC1)c1cncc(Br)c1
[11] Cc1ccc(C(=O)C2=C(O)C(=O)N(c3ncccn3)C2c2ccc(Cl)cc2)o1 (stereo not drawn)
[12] N#CC1=C(N)N(c2ncn[nH]2)C2=C(C(=O)CCC2)C1c1ccccc1 (stereo not drawn)
[13] CC(C)NC(=O)c1ccccc1NC(=O)c1ccccc1N(C)S(C)(=O)=O
[14] Cc1ccc(S(=O)(=O)NCc2c(-c3ccccc3)c3cc(Cl)ccc3[nH]c2=O)cc1
[15] Cc1ccc(-c2nc(N)sc2C)cc1
[16] O=C(NCC[C@@H]1CC[C@@H](NC(=O)C2CC2)[C@@H](CO)O1)Nc1ccc(Cl)cc1
assay / entry,9,10,11,12,13,14,15,16
ALR H2O2 inh,4,1,10,-11,-5,3,·,·
Ecoli rRNA inh,0,10,·,12,·,·,1,-35
Ecoli rRNA inh OD600,-4,15,·,9,·,·,-3,-58
Ecoli rRNA inh RFP,-0.9,0.0,·,2.6,·,·,14,20
Ecoli growth,·,0.69,0.77,0.67,0.64,0.71,0.58,·
HNF4A DNA FP,·,-3.6,4.6,3.6,13,0.3,-0.5,·
FGF22 binding,i,i,·,i,·,·,i,i
Vif A3G,0%,8%,-31%,-1%,-4%,-20%,3%,·
MLL AF4-AF9 inh,1.9,-4.1,·,-1.7,·,·,5.9,10

3 of the entries above in order of their number in Ecoli rRNA inh, largest number first:
cpd	mol	Ecoli rRNA inh
15	Cc1ccc(-c2nc(N)sc2C)cc1	1
9	CCOC(=O)C1=C(C)Nc2nnnn2C1c1c[nH]c2ccccc12 (stereo not drawn)	0
16	O=C(NCC[C@@H]1CC[C@@H](NC(=O)C2CC2)[C@@H](CO)O1)Nc1ccc(Cl)cc1	-35

Next part.
[17] O=C(Cc1n[nH]c(=O)c2ccccc12)OCc1c(Cl)cccc1Cl
[18] CCOC(=O)c1sc(NC(=O)C(C)C)c(C#N)c1C
[19] CCCNC(=O)CSc1nccn1Cc1ccc(OC)cc1
[20] CCc1nc2ccc(C(=O)N3CCN(C(=O)c4ccco4)CC3)cn2c1N(C)C(=O)COc1ccccc1
[21] CCCNC(=O)NC(=O)CN1C(=O)NC(C)(c2ccc(C)cc2)C1=O (stereo not drawn)
[22] COCC#Cc1cnc2c(c1)C(=O)N([C@H](C)CO)C[C@@H](C)[C@H](CN(C)C(=O)c1cccc(F)c1)O2
[23] CCCc1cc(C(=O)Cc2nc3ccccc3s2)c(O)cc1O
[24] O=C(CSc1cccc[n+]1[O-])Nc1ccc2c(c1)OCO2
assay / entry,17,18,19,20,21,22,23,24
ALR H2O2 inh,·,-8,4,·,-3,·,·,6
Ecoli rRNA inh,17,1,20,7,·,2,·,2
Ecoli rRNA inh OD600,8,-4,14,13,·,14,·,1
Ecoli rRNA inh RFP,-6.9,-0.6,3.1,-0.3,·,-2.8,·,3.7
Ecoli growth,0.68,0.71,0.72,·,0.73,·,0.69,0.68
HNF4A DNA FP,-0.2,14,2.6,2.5,5.4,·,6.1,0.2
FGF22 binding,·,i,i,i,·,i,·,i
Vif A3G,·,-25%,-2%,·,2%,·,19%,17%
MLL AF4-AF9 inh,-1.7,-4.0,-2.0,-0.6,·,-3.0,·,6.0

[25] O=C(Cn1cnc2c(OCc3ccccc3)ncnc21)NCc1ccccc1
[26] O=C(Nc1ccccc1)c1cc(C2CCCCN2S(=O)(=O)c2ccccc2)on1 (stereo not drawn)
[27] CCN1C(=O)C(O)(CC(=O)c2ccc(-n3cccc3)cc2)c2ccccc21 (stereo not drawn)
[28] COc1ccc(-c2nnc(NC(=O)c3ccccc3[N+](=O)[O-])s2)c(OC)c1
[29] COc1cc(NC(=O)C2CCCO2)c(OC)cc1Cl (stereo not drawn)
[30] COc1ccc(-c2cccc(-c3cc(=O)oc4cc(OC)c(OC)c(OC)c34)c2)cc1
[31] O=C(Nc1nc2ccccc2s1)c1ccc2c(c1)OCO2
[32] CCc1ccccc1Nc1nc2ccccc2n1C
assay / entry,25,26,27,28,29,30,31,32
ALR H2O2 inh,·,·,-5,-4,·,·,-10,98*
Ecoli rRNA inh,6,0,·,3,·,18,·,5
Ecoli rRNA inh OD600,14,-9,·,16,·,12,·,4
Ecoli rRNA inh RFP,-5.3,1.9,·,-3.2,·,3.0,·,-0.6
Ecoli growth,0.71,·,0.72,0.81,0.73,0.72,0.68,0.65
HNF4A DNA FP,4.5,2.9,-2.4,6.8,0.5,-3.3,0.7,0.6
FGF22 binding,i,i,·,i,·,i,·,i
Vif A3G,-3%,·,10%,·,6%,-7%,-6%,10%
MLL AF4-AF9 inh,3.6,-1.7,·,-5.8,·,3.3,·,1.3

[33] COc1ccc(C)cc1NC(=O)c1ccc(OC(F)F)cc1
[34] COc1cc(NC(=O)CN(C)Cc2ccc(OC(F)F)cc2)c(C)cc1[N+](=O)[O-]
[35] CC(C)(C)C(=O)COC(=O)CCc1nc2ccccc2[nH]c1=O
[36] O=C(CC(F)(F)F)N1C[C@@H]2[C@H](c3ccccc31)[C@@H](CO)N2CC1CCCCC1
[37] Nc1nonc1-n1nnc(C(=O)N/N=C/c2ccccc2)c1CSc1ccccc1
[38] CCn1nc(C)cc1C(=O)N1CCCC(N2CCN(c3ccccc3OC)CC2)C1 (stereo not drawn)
[39] Cc1ccc(NC(=O)CN2C(=O)COc3ccc(S(=O)(=O)N4CCOCC4)cc32)cc1N(C)C
[40] O=C(CSC(=S)N1CCCCC1)Nc1nc(-c2ccccc2)c(-c2ccccc2)o1
assay / entry,33,34,35,36,37,38,39,40
ALR H2O2 inh,-2,-10,1,·,-5,·,1,-4
Ecoli rRNA inh,-23,·,7,2,-4,9,4,·
Ecoli rRNA inh OD600,-7,·,9,3,3,8,13,·
Ecoli rRNA inh RFP,-0.7,·,2.8,-2.4,0.1,-2.2,-0.4,·
Ecoli growth,0.69,0.66,0.69,·,·,0.69,0.67,0.74
HNF4A DNA FP,-0.7,-1.5,4.4,·,-1.9,-3.0,3.2,1.8
FGF22 binding,i,·,i,i,i,i,i,·
Vif A3G,24%,12%,4%,·,·,·,·,-9%
MLL AF4-AF9 inh,-5.3,·,-2.3,0.1,-4.5,-2.2,3.1,·

[41] CCOC(=O)c1cc(NC(=O)c2ccoc2C)cc(C(=O)OCC)c1
[42] Nc1nnc(CCCCCCCCCCc2nnc(N)s2)s1
[43] CCN(CC)CCOC(=O)c1ccc(N/C=C(/C#N)c2nc(-c3ccc(OC)cc3)cs2)cc1
[44] CCN(CC)c1ccc(S(=O)(=O)N2CCOCC2)cc1NC(=O)CN1CCc2ccccc2C1
[45] CCN(CC)S(=O)(=O)c1cccc(NC(=O)C2CC(=O)N(c3ccc4c(c3)OCCO4)C2)c1 (stereo not drawn)
[46] CN1[C@@H](CC(=O)c2ccccc2)CCC[C@H]1C[C@H](O)c1ccccc1
[47] O=C(N/N=C\c1ccc(OC(=O)c2cccs2)cc1)c1ccc(Cl)cc1
[48] Cc1nc2c(-c3ccccc3)c(C)nn2c(C)c1CCC(=O)N1CCOCC1
assay / entry,41,42,43,44,45,46,47,48
ALR H2O2 inh,-5,-5,-8,7,1,·,-6,39
Ecoli rRNA inh,·,-3,-4,-5,3,·,12,·
Ecoli rRNA inh OD600,·,-12,3,-3,1,·,10,·
Ecoli rRNA inh RFP,·,0.0,19,-3.0,6.2,·,0.9,·
Ecoli growth,0.68,0.72,0.66,0.74,0.65,·,·,0.72
HNF4A DNA FP,4.7,-2.1,238,-2.5,4.9,-2.1,8.0,0.8
FGF22 binding,·,i,i,i,i,i,i,·
Vif A3G,-7%,7%,·,5%,0%,-3%&-3%,-1%,-6%
MLL AF4-AF9 inh,·,-1.0,15,-0.8,-2.3,1.3,-2.7,·

[49] CC(C)Cn1c(N)c(C(=O)COC(=O)c2cc(C(F)(F)F)nc3ccccc23)c(=O)n(C)c1=O
[50] COc1ccc(-c2cnc3c(NC=O)cc(-c4ccoc4)cn23)cc1OC
[51] CCOc1ccc(NC(=O)c2cccc(-n3cccc3)c2)cc1S(=O)(=O)N1CCOCC1
[52] CC1(C)C2([N+](=O)[O-])CN3CC1([N+](=O)[O-])CN(C2)C31CCCC1
[53] CCN(CC)S(=O)(=O)c1cccc(NC(=O)COC(=O)C2COc3ccccc3O2)c1 (stereo not drawn)
assay / entry,49,50,51,52,53
ALR H2O2 inh,-12,·,·,-20,-26
Ecoli rRNA inh,-11,11,-9,18,·
Ecoli rRNA inh OD600,-16,13,-11,14,·
Ecoli rRNA inh RFP,-6.8,1.4,0.5,5.8,·
Ecoli growth,0.7,·,·,0.71,0.7
HNF4A DNA FP,·,7.2,-53,2.6,-1.7
FGF22 binding,i,i,+,i,·
Vif A3G,11%,·,·,25%,8%
MLL AF4-AF9 inh,4.5,1.5,2.7,-35,·

This is a subset (hit frequency here may not be typical).
